D2 potentiator = potentiates the human D2 dopamine receptor allosterically. P14416. DiscoveRx D2 beta-arrestin cells, luminescence, 90 min; 100% = 57 uM dopamine signal. potentiation, % (test concentration not listed). 360,000 compounds, 0.23% hits; active = potentiation of 50% or more; inconclusive = 30% to 50%; inactive = 30% or less;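 further: compound concentration not given in the record; tested on top of an EC20 dose of dopamine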
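PathHunter beta-arrestin assay in DiscoveRx D2 cells. Compounds were added with an EC20 of dopamine (50 nM final) for 90 min at 37 deg C. Luminescence was read 1 h after detection reagent, with 57 uM dopamine as the EC100 control.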
PINK1 modulator = PINK1 expression modulation; AID 624263; PINK1 immunofluorescence, high-content cytometry, 24 h; 410,000 compounds, 0.2% hits; Potency, µM (highest dose often 76.6 µM), for the others: top-dose activation (PINK1 increase), actives largely listed as activators; active = well fitted activation curve with a large enough effect; inconclusive = small, poorly fitted or top-dose-only effect; inactive = flat fitted curve, though single readings scatter; cell line not stated here;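 further: potency means the concentration at half of the fitted maximal effect; % of control where 0% means no effect; nearly all actives have a fitted effect of over 65% in size; a mitochondrial uncoupler was the plate control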
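Compound titrations (5 concentrations, 24 h) on a stable cell line; DMSO and CCCP controls. Endpoint: fixed-cell PINK1 immunofluorescence with mitochondrial, cell and nuclear markers, scanned by microplate cytometer.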
Six1-Eya2 inh = inhibitors of human Six1/Eya2 interaction; activity change, % (test concentration not listed); 360,000 compounds, 0.56% hits; AlphaScreen GST-Six1/His-Eya2 binding, biochemical; active compounds read low; control for the full effect not named in the record; Q15475+O00167; in the data active = activity change below about -65%; inconclusive = about -30% to -65%; inactive = above about -30%; further: on the % scale 0 is the no-effect control and ±100 the full control effect
Target sequence (O00167 whole entry, looked up): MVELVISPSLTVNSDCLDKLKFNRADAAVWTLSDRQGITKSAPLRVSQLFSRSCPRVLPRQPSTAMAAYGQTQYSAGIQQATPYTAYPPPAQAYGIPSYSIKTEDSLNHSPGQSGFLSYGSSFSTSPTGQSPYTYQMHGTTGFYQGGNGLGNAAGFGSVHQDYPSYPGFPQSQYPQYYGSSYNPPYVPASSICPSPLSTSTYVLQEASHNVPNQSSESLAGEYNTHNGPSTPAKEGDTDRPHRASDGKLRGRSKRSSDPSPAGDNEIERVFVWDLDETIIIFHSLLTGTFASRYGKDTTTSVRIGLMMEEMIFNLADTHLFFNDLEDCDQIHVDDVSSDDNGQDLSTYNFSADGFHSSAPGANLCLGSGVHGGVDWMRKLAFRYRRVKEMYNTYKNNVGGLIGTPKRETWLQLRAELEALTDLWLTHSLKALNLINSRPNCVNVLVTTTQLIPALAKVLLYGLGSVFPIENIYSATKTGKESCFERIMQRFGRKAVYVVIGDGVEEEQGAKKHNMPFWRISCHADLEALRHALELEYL
Target sequence (Q15475 whole entry, looked up): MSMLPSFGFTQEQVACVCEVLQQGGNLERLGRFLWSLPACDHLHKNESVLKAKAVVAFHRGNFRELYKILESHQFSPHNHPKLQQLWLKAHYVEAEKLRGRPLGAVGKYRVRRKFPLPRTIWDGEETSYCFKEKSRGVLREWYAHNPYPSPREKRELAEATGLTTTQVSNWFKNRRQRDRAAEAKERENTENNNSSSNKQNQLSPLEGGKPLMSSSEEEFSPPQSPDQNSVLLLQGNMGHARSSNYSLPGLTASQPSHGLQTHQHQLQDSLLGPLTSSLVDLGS
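AlphaScreen with GST-Six1 and His-Eya2 (5X mix: 250 nM and 500 nM), glutathione donor and nickel acceptor beads; buffer 50 mM Tris pH 8.0, 300 mM NaCl, 1 mM TCEP; 1 h at 37 C in the dark.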
TRPML1 ag = agonists of human TRPML1 channel; TRPML1-expressing cells, Ca2+ dye fluorescence, FDSS; host cell line not named in the record; reference of the full effect not given here; AID 624414; Q9GZU1; 410,000 compounds, 0.12% hits; activation, % (test concentration not listed); in the data active = activation above about 50%; inconclusive = about 30% to 50%; inactive = below about 30%; further: 0% is about no effect; the text of the record puts the active cut at 80%
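Tet-induced TRPML1-DL cells, 1,500 per well, cultured overnight, were loaded with a no-wash Ca2+ dye for 45–90 min. Calcium fluorescence was recorded on the FDSS for 110 s after compound addition, before the EC80 agonist (4 uM 54-4) was added.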
CtBP-E1A inh = CtBP/E1A binding inhibition | AlphaScreen GST-E1A/His-CtBP binding, 1536-well; active compounds read low; control for the full effect not named in the record | activity change, % (no concentration beside the values) | 340,000 compounds, 0.49% hits | AID 651724; in the data active means activity change below about -65%; inconclusive means about -30% to -65%; inactive means above about -30%; further: on the % scale 0 is the no-effect control and ±100 the full control effect
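AlphaScreen with 125 nM GST-E1A and 125 nM His-CtBP (5X stocks) in Tris pH 8.0, 300 mM NaCl, BSA, Tween 20, TCEP. Compounds preincubated 2 h at 37 deg C, then glutathione donor/nickel acceptor beads added for 1 h at 37 deg C in dark.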
D2 agonist = activates the human D2 dopamine receptor | P14416 | DiscoveRx PathHunter D2 beta-arrestin, luminescence, 90 min; 100% = 57 uM dopamine signal | activation, % (no concentration beside the values) | 360,000 compounds, 0.084% hits | AID 624465; in the data active = activation above about 40%; inconclusive = about 15% to 40%; inactive = below about 15%; further: compound concentration not given in the record; the text of the record calls up to 30% inactive
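Agonist mode: compounds alone added to overnight-plated D2 PathHunter cells for 90 min at 37 C, with 57 uM final dopamine (EC100) defining full response. Beta-arrestin recruitment detected by chemiluminescent reagent, read after 1 h at ambient temperature.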
The depositor's hits bear a star; [ ] = another dose, or the depositor's remark.

Cc1ccc(NC(=O)CSc2nnc(-c3ccccn3)n2N)cc1F was read as D2 potentiator -1.4, PINK1 modulator 6.6%, Six1-Eya2 inh -9.7, TRPML1 ag -0.4, CtBP-E1A inh -14.5 and D2 agonist -0.6.
For COc1cccc(CN(C)CC(=O)NC(=O)NCc2ccccc2)c1 the results were D2 potentiator -12.2, PINK1 modulator -0.5%, Six1-Eya2 inh 7.9, TRPML1 ag 1.9, CtBP-E1A inh -6.1 and D2 agonist 1.7.
Screening CC(C)CC(=O)Nc1ccc(N2CCN(C(=O)c3cccs3)CC2)cc1 returned D2 potentiator -0.5, PINK1 modulator 5.1%, Six1-Eya2 inh -1.4, TRPML1 ag -0.1, CtBP-E1A inh -2.0 and D2 agonist -1.7.
For O=C(Nc1ccc(S(=O)(=O)N2CCOCC2)cc1)c1ccccc1 the results were D2 potentiator -3.2, PINK1 modulator 0.8%, Six1-Eya2 inh -11.8, TRPML1 ag -0.5, CtBP-E1A inh -12.5 and D2 agonist -1.5.
`CC(C)[C@@H]1CC2=C(C(=O)OC(C)(C)O2)[C@H](CCc2ccccc2)O1` gave PINK1 modulator 20.8%, Six1-Eya2 inh 12.1, TRPML1 ag -0.5 and CtBP-E1A inh 24.3.
For Fc1ccc(OCCn2cnc(Cl)c2Cl)cc1 the results were D2 potentiator -10.5, PINK1 modulator 0.6%, Six1-Eya2 inh -5.0, TRPML1 ag 0.2, CtBP-E1A inh 0.4 and D2 agonist -2.0.
For O=C(OCC1OC(n2ccc(=O)[nH]c2=O)C2OC12)c1ccccc1 (stereo not given) the results were D2 potentiator -1.1, PINK1 modulator 0.6%, Six1-Eya2 inh 11.7, TRPML1 ag 1.0, CtBP-E1A inh 5.8 and D2 agonist -1.2.
`CC1CCN(C(=O)c2cccc(S(=O)(=O)N3CCCCC3)c2)CC1` gave D2 potentiator -13.2, PINK1 modulator 25.8%[38.3 µM], Six1-Eya2 inh 0.0, TRPML1 ag -0.1, CtBP-E1A inh 8.1 and D2 agonist 0.3.
Screening COC(=O)c1ccc(N(C(=O)CNC(=O)c2ccco2)C(C(=O)NC2CCCC2)c2ccco2)cc1 (stereo not given) returned D2 potentiator -4.1, PINK1 modulator 0.3%, Six1-Eya2 inh -2.8, TRPML1 ag -1.1, CtBP-E1A inh 4.9 and D2 agonist -2.7.
COc1ccc(N2C(=O)CSC2c2ccccc2F)c(OC)c1 (stereo not given) was read as D2 potentiator -3.7, PINK1 modulator 2.8%, Six1-Eya2 inh 11.1, TRPML1 ag -0.2, CtBP-E1A inh 1.6 and D2 agonist -1.1.
`Cc1nn(-c2cc(N3CCCCCC3)ccc2[N+](=O)[O-])c(=O)c2ccccc12` gave D2 potentiator -4.5, PINK1 modulator 2.6%[38.3 µM], Six1-Eya2 inh -18.9, TRPML1 ag 0.6, CtBP-E1A inh -10.1 and D2 agonist -2.3.
CC(=O)c1ccc(NC(=O)C2CC(c3ccc(F)cc3)=NO2)cc1 (stereo not given) was read as D2 potentiator -6.6, PINK1 modulator 0.5%[38.3 µM], Six1-Eya2 inh -0.6, TRPML1 ag 0.9, CtBP-E1A inh -0.7 and D2 agonist -1.5.

Pulled by structure from the entries so far (2):
`CC1CCN(C(=O)c2cccc(S(=O)(=O)N3CCCCC3)c2)CC1` gave D2 potentiator -13.2, PINK1 modulator 25.8%[38.3 µM], Six1-Eya2 inh 0.0, TRPML1 ag -0.1, CtBP-E1A inh 8.1 and D2 agonist 0.3.
CC(=O)c1ccc(NC(=O)C2CC(c3ccc(F)cc3)=NO2)cc1 (stereo not given) was read as D2 potentiator -6.6, PINK1 modulator 0.5%[38.3 µM], Six1-Eya2 inh -0.6, TRPML1 ag 0.9, CtBP-E1A inh -0.7 and D2 agonist -1.5.

Returning to the listing, repeating the two entries before the break.
`Cc1nn(-c2cc(N3CCCCCC3)ccc2[N+](=O)[O-])c(=O)c2ccccc12` gave D2 potentiator -4.5, PINK1 modulator 2.6%[38.3 µM], Six1-Eya2 inh -18.9, TRPML1 ag 0.6, CtBP-E1A inh -10.1 and D2 agonist -2.3.
CC(=O)c1ccc(NC(=O)C2CC(c3ccc(F)cc3)=NO2)cc1 (stereo not given) was read as D2 potentiator -6.6, PINK1 modulator 0.5%[38.3 µM], Six1-Eya2 inh -0.6, TRPML1 ag 0.9, CtBP-E1A inh -0.7 and D2 agonist -1.5.
`CCC[C@@H](O)c1cc2cc(OC)c(OC)cc2c(=O)o1` gave D2 potentiator -2.7, PINK1 modulator 3.4%, Six1-Eya2 inh -9.1, TRPML1 ag -0.7, CtBP-E1A inh -0.1 and D2 agonist -1.3.
`O=C(NN1CCOCC1)c1cc(-c2ccc(Br)s2)nc2ccccc12` gave D2 potentiator 1.6, PINK1 modulator 1.5%, Six1-Eya2 inh 0.8, TRPML1 ag -0.6, CtBP-E1A inh 5.0 and D2 agonist 0.3.
`CN1OC[C@@H]2CN(Cc3ccc(Cl)cc3)[C@H](c3ccc(N4CCCCC4)cc3)C[C@@H]21` gave D2 potentiator -10.5, PINK1 modulator 2.8%, Six1-Eya2 inh inconclusive, TRPML1 ag 0.1, CtBP-E1A inh inconclusive and D2 agonist -3.5.
Screening CCOC(=O)N1CCN(c2c(N3CCN(c4cc(C)ccc4C)CC3)c(=O)c2=O)CC1 returned D2 potentiator -3.4, PINK1 modulator 2.8%, Six1-Eya2 inh 3.2, TRPML1 ag -0.8, CtBP-E1A inh 9.0 and D2 agonist 5.1.
O=C(CNC(=O)c1ccccc1Cl)N/N=C/c1ccc([N+](=O)[O-])s1 was read as D2 potentiator -5.1, PINK1 modulator inconclusive, Six1-Eya2 inh -2.3, TRPML1 ag 0.3, CtBP-E1A inh -12.0 and D2 agonist -1.2.
`CCOC(=O)N1CCN(S(=O)(=O)c2ccc(OC)c(Cl)c2Cl)CC1` gave D2 potentiator -2.4, PINK1 modulator 0.6%, Six1-Eya2 inh 4.3, TRPML1 ag 1.6, CtBP-E1A inh -0.4 and D2 agonist -3.6.
COCCCNc1nc2ccccc2nc1NS(=O)(=O)c1ccc(C)cc1 was read as D2 potentiator -4.0, PINK1 modulator 1.9%, Six1-Eya2 inh 0.1, TRPML1 ag 0.2, CtBP-E1A inh 4.0 and D2 agonist -3.2.
CCOC(=O)N1CCN(C(=O)C2CCN(S(=O)(=O)c3cc(Cl)ccc3Cl)CC2)CC1 was read as D2 potentiator 6.7, PINK1 modulator 4.8%[38.3 µM], Six1-Eya2 inh 2.9, TRPML1 ag -1.0, CtBP-E1A inh 4.1 and D2 agonist 0.2.
Screening Cc1ccc(NC(=O)COC(=O)C2(CC(=O)NC(C)(C)C)CCCC2)cc1C returned D2 potentiator -9.2, PINK1 modulator inconclusive, Six1-Eya2 inh 2.3, TRPML1 ag -0.1, CtBP-E1A inh 2.0 and D2 agonist -1.8.
COc1ccc(C(=O)C2CCCN(C(=O)c3noc4c3CCCC4)C2)c(C)c1 (stereo not given) was read as D2 potentiator 7.2, PINK1 modulator 1.8%, Six1-Eya2 inh -0.3, TRPML1 ag 1.9, CtBP-E1A inh 1.5 and D2 agonist 2.5.
For COc1ccc(OC)c(S(=O)(=O)ON2C(=O)c3ccccc3C2=O)c1 the results were D2 potentiator -20.6, PINK1 modulator 6.8%, Six1-Eya2 inh -11.3, TRPML1 ag -0.5, CtBP-E1A inh 0.6 and D2 agonist -7.4.
For Cc1ccc(Nc2nc(-c3cccnc3)cs2)cc1C the results were D2 potentiator -13.8, PINK1 modulator 2.2%, Six1-Eya2 inh -8.1, CtBP-E1A inh -2.8 and D2 agonist 3.1.
CC(=O)N(C(C)=O)n1c(/C=C/c2cccc([N+](=O)[O-])c2)nc2ccccc2c1=O was read as D2 potentiator -2.0, PINK1 modulator 1.5%, Six1-Eya2 inh 14.5, TRPML1 ag -0.2, CtBP-E1A inh -1.5 and D2 agonist -6.5.
Screening OCC[C@H]1C[C@@H](O)[C@H](O)[C@]2(OCc3ccccc32)O1 returned D2 potentiator -2.8, PINK1 modulator -0.1%, Six1-Eya2 inh 7.4, TRPML1 ag -0.1, CtBP-E1A inh 10.2 and D2 agonist -1.5.
For O=C(Nc1cc(Cl)ccc1C(=O)O)c1ccc(CN2C(=O)c3ccccc3C2=O)cc1 the results were D2 potentiator -3.4, PINK1 modulator 1.6%, Six1-Eya2 inh -2.6, TRPML1 ag 0.1, CtBP-E1A inh -11.8 and D2 agonist 1.8.
`O=C(Cn1c(=O)oc2ccc(Cl)cc21)NC1CCCCC1` gave D2 potentiator 1.5, PINK1 modulator 0.7%, Six1-Eya2 inh 3.9, TRPML1 ag -0.4 and D2 agonist -3.0.
`COc1cc2c(cc1OC)CN(C(=S)Nc1ccccc1Cl)CC2` gave D2 potentiator -8.9, PINK1 modulator 1.8%, Six1-Eya2 inh -10.8, TRPML1 ag 0.8, CtBP-E1A inh -18.7 and D2 agonist 5.4.
CO/N=C/C(C#N)=C/c1cc(C(=O)c2ccccc2)cn1C was read as D2 potentiator -8.7, PINK1 modulator 4.6%, Six1-Eya2 inh -0.8, TRPML1 ag -0.4, CtBP-E1A inh -8.3 and D2 agonist -1.5.
`Cc1cc(C(=O)NC2CCCc3c2cnn3-c2cccc(C)c2C)no1` (stereo not given) gave D2 potentiator -1.3, PINK1 modulator 2.6%, Six1-Eya2 inh 10.2, TRPML1 ag 1.2, CtBP-E1A inh 4.7 and D2 agonist 1.3.
CCOc1ccc(NS(=O)(=O)c2ccc3c(c2)CCN3C(=O)CCC(=O)O)cc1 was read as D2 potentiator 2.5, PINK1 modulator -0.7%[38.3 µM], Six1-Eya2 inh -3.3, TRPML1 ag 0.6, CtBP-E1A inh -4.0 and D2 agonist -0.6.
COc1ccc(/C=C(\NC(=O)c2ccccc2)C(=O)OCC2CCCN3CCCCC23)cc1OC (stereo not given) was read as D2 potentiator -24.6, PINK1 modulator 1.6%, Six1-Eya2 inh 2.5, TRPML1 ag -0.3, CtBP-E1A inh 5.4 and D2 agonist -2.7.
`Cc1cc(=O)n2nc(N3CCC(C(=O)N4CCN(C)CC4)CC3)sc2n1` gave D2 potentiator -4.4, PINK1 modulator 0.9%, Six1-Eya2 inh 10.8, TRPML1 ag 0.6, CtBP-E1A inh -6.8 and D2 agonist 0.9.
For CN(CCc1ccccn1)C1CCCN(S(=O)(=O)c2ccccc2)C1 (stereo not given) the results were D2 potentiator -28.6, PINK1 modulator -0.8%, Six1-Eya2 inh 8.4, TRPML1 ag -0.5, CtBP-E1A inh 1.5 and D2 agonist -1.6.
Screening Cc1noc(C)c1COc1ccc(C(=O)OCC(=O)Nc2c(C)n(C)n(-c3ccccc3)c2=O)cc1 returned D2 potentiator -8.9, PINK1 modulator 0.9%, Six1-Eya2 inh 11.9, TRPML1 ag 0.5 and D2 agonist -1.1.
`CCOC(=O)c1cc2c(c(-c3ccccc3)n1)[C@H](CCO)N(S(=O)(=O)C(C)(C)C)C2` gave PINK1 modulator 0.8%, Six1-Eya2 inh 21.7, TRPML1 ag -0.6, CtBP-E1A inh 29.0 and D2 agonist 4.1.
For CCCc1[nH]nc2c1C(c1cccnc1)C(C#N)=C(N)O2 (stereo not given) the results were D2 potentiator -14.2, PINK1 modulator -1.9%, Six1-Eya2 inh 1.2, TRPML1 ag -1.0, CtBP-E1A inh 6.7 and D2 agonist 1.0.
